FGF22 binding = shifts melting point of recombinant human FGF22 | Q9HCT0 | recombinant FGF22 thermal shift, SYPRO orange fluorescence; percent of sucrose octasulfate shift, DMSO zero | calls only at 9.99 µM | hit rate 1.5% among 340,000;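 active = melting point raised past a set limit in the mean and every replicate; inconclusive = no clear call; three in four hits are not shown here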
Target sequence (Q9HCT0 whole entry, looked up): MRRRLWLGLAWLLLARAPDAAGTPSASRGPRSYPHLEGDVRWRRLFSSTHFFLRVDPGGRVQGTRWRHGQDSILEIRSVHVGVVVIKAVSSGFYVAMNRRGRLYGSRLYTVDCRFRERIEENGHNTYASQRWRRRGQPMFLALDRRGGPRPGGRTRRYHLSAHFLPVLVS
Calb FLC = affects C. albicans growth with fluconazole; C. albicans CaCi-2 (fluconazole-resistant clinical isolate) + fluconazole, Alamar Blue growth, 48 h; growth inhibition, % (concentration not given with the values); hit rate 0.57% among 300,000; AID 1979;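 active = most replicates above 75%; inconclusive = exactly half above 75%; inactive = most below 75%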;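 also: all wells also contain fluconazole at 8 µg/ml as a sub-toxic cotreatment; 0% = median of DMSO wells and 100% = median of geldanamycin control wells; wells of about 8 µL received 7.5 nL stock; the first replicate is given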
Beta apoptosis = blocks beta cell apoptosis. INS-1E cytokine-induced death, ATP luminescence, 48 h; percent of positive-control rescue, neutral wells zero. protection from apoptosis, % (test concentration not listed). hit rate 0.8% among 300,000;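 active = all replicates at 75% or more, or half of them and the mean; inconclusive = half reach 75% but not the mean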;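 also: 0% = cytokine-treated negative control wells and 100% = positive control rescue; higher means more ATP so stronger rescue from cytokine killing; wells of about 40 µL received 100 nL stock; the first replicate is given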
Ecoli rRNA inh = selective bacterial rRNA inhibition in E. coli; hit rate 1.6% among 350,000; GFP signal change (wild-type ribosome), % (no concentration beside the values); E. coli WT GFP vs humanized-ribosome RFP mutants, fluorescence, 24 h; stronger effect = lower value; DMSO median 0, no signal -100;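 active = significant combined selectivity score with lowered wild-type GFP, culture density cut under 30%, mutant RFP and density less affected; inactive = any of these conditions unmet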; also: one replicate is shown; some compounds called inactive have numbers as strong as hits
AF4-AF9 inh = inhibitors of human MLL-AF4/AF9 interaction. inhibition, % at 10 µM. hit rate 0.47% among 350,000. P42568. AlphaScreen, biotin-AF4 peptide binding to FLAG-AF9;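 active = every replicate reaching a set inhibition limit, whatever the replicate mean, cut at about 25% in these data; inconclusive = mean inhibition reaches that limit but some replicates miss it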;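 also: 0% = plate neutral control median and 100% = total signal loss; the record names both 10 and 1 µM as test concentration; the first replicate is given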
Target sequence (P42568 whole entry, looked up): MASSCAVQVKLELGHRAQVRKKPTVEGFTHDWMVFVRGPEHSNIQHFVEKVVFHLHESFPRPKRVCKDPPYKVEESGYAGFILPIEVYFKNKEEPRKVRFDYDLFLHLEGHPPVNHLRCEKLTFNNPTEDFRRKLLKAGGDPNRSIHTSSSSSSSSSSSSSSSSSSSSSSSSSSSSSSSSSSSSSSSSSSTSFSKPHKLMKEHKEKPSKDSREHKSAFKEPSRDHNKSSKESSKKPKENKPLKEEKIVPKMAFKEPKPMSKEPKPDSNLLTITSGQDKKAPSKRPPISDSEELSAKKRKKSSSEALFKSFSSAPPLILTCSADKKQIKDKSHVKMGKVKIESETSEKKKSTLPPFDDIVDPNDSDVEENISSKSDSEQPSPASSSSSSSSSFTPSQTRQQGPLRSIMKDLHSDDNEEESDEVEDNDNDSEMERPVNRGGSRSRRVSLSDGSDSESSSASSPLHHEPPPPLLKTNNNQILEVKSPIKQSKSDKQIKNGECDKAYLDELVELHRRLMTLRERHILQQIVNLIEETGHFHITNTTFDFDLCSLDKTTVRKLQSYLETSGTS
ALR inh = inhibitors of human sulfhydryl oxidase ALR; P55789; purified ALR, DTT oxidation, H2O2 HRP-luminol luminescence; inhibition, % (no concentration beside the values); hit rate 3.8% among 290,000; AID 485317;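 active = mean and each replicate at 75% or more; inconclusive = only one of the two met; inactive = neither met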;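 also: stock transfer was 7.5 nL into about 7.5 µL; 0% = neutral wells and 100% = wells with inactivated enzyme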
Target sequence (P55789 whole entry, looked up): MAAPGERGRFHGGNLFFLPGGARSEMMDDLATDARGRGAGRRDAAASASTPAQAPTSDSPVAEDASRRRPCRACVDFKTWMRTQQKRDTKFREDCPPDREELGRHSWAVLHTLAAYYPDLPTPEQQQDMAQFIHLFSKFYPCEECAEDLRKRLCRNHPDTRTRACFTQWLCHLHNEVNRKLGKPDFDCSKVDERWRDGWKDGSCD
T cruzi repl = T. cruzi replication inhibition; T. cruzi beta-gal in NIH3T3, luminescence, 90 h; inhibition, % (no concentration beside the values); hit rate 1.4% among 300,000;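 active = mean inhibition across valid replicates above about 55%, limit read from the data; inconclusive = mean below that limit but half or more replicates reach it; inactive = mean below it, under half of replicates reach it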;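 also: signal also drops with host cell toxicity which is not excluded here; 0% = plate median of DMSO wells and 100% = zero luminescence signal; higher percent means less beta-gal luminescence so fewer parasites; stock transfer was 50 nL into about 50 µL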
RanGTP-Imp inh = inhibitors of RanGTP-importin-beta interaction, primary screen, biochemical, FRET, CFP-Ran, YFP-importin-beta, homogeneous; cell-free CFP-Ran/YFP-importin-beta FRET ratio; inhibition, % (no concentration beside the values); hit rate 1.1% among 300,000; AID 2216;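 active = most replicates above 15%; inconclusive = exactly half above 15%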;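 also: 0% = DMSO wells and 100% = Ran loaded with GDP instead of GTP; wells of about 40 µL received 100 nL stock; the first replicate is given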
Ecoli rRNA inh OD600 = recorded beside Ecoli rRNA inh, whose call it bears; OD600 change, %; measured here: OD600 growth;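 optical density of the mix in the first replicate; 0 = DMSO median and -100 = no signal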
Ecoli rRNA inh RFP = further read-out of Ecoli rRNA inh, marked with its call; RFP signal change, %; measured here: RFP humanized mutant strains;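 first replicate; 0 = DMSO median and -100 = no signal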
* hit, by the source's call; i = inactive; ? = inconclusive; . = not tested or not shown. This is a subset; the hit share may differ from the screen's.

compound	FGF22 binding	Calb FLC	Beta apoptosis	Ecoli rRNA inh	Ecoli rRNA inh OD600	Ecoli rRNA inh RFP	AF4-AF9 inh	ALR inh	T cruzi repl	RanGTP-Imp inh
CCCc1n(CC(O)COCc2ccccc2)c2ccccc2[n+]1C (centres undefined)	i	-21	1	22	9	-0.8	-1.3	-1	5	35*
CN(c1ccccc1)S(=O)(=O)c1cccc(C(=O)Nc2nccs2)c1	i	-24	-5	-47	-62	-1.8	3.8	1	0	-3.1
Cc1cccn2c(=O)c3cc(C#N)c(=N)n(Cc4ccncc4)c3nc12	.	-43	0	.	.	.	.	0	-3	74*
CC(C)C(OC(=O)c1ccccc1)c1nccc2ccccc12 (centres undefined)	i	11	2	-28*	-9.8*	-3.6*	-4.1	-2	31	-3.6
CC(=O)Oc1ccc(C(=O)Nc2ccc3c(c2)C(=O)N(CCC(=O)O)C3=O)cc1	.	3	-2	.	.	.	.	1	-8	.
Cc1ccccc1OCCn1c(S(=O)(=O)O)nc2c(N)ncnc21	i	-2	-5	18	10	-0.5	-3.7	5	-20	0.8
Cc1cccn2c(=O)c(/C=C3\SC(=S)NC3=O)c(NCCCN3CCOCC3)nc12	i	31	21	10	15	11	1.2	20	19	35*
CCOc1ccc(/C=C2\SC(=S)N(CCC(=O)O)C2=O)cc1	.	1	-3	-27*	-2.3*	2.1*	.	3	-24	-0.2
CCCc1cc(=O)oc2c(C)c(OCC(=O)NC3CCN(Cc4ccccc4)CC3)ccc12	i	32	9	2	3	-2.2	3.4	1	26	1.3
Cn1cnnc1SCC(=O)Nc1ccccc1Sc1ccccc1	.	20	-1	.	.	.	.	-9	-9	-0.8
COCCCn1c(=O)c2ccccc2n(Cc2cccc(C)c2)c1=O	i	2	.	0	7	-0.3	1.5	-4	1	2.0
Cc1[nH]n(-c2ccccc2)c(=O)c1/C=N/N1C(=O)c2ccc3c4c(ccc(c24)C1=O)CC3	.	-35	10	.	.	.	.	.	-6	5.2
COc1ccc(C2SCC(C(=O)O)N2C(C)=O)cc1OC (centres undefined)	i	-4	0	6	14	1.2	-2.3	-16	2	-1.8
CC(C)c1ccc(C(CC(=O)c2ccc(Cl)cc2)C(=O)O)cc1 (centres undefined)	.	13	.	.	.	.	.	45	-5	3.6
CC(=O)N1CCc2cc(C(=O)CN3CCCN(Cc4ccc(F)cc4)C3)ccc21	.	-2	-10	.	.	.	.	-4	4	?
O=C(NCCc1c[nH]c2ccccc12)c1cc([N+](=O)[O-])cc([N+](=O)[O-])c1	i	-11	-2	-12	8	-2.8	-1.1	-3	69*	2.2
Nc1nc(C2CCCN2S(=O)(=O)c2ccc(Cl)cc2)cs1 (centres undefined)	.	-1	0	.	.	.	.	-3	-7	-0.7
O=C(OCC(=O)N(Cc1ccccc1)Cc1ccccc1)c1cccc(O)c1	i	.	-1	-5	-2	2.2	2.1	-2	.	.
Cc1cc(C(F)(F)F)nc(-n2cc(-c3cccc(N)c3)nn2)n1	i	19	-2	.	.	.	-1.5	-4	3	-0.1
Cc1sc2nc(-c3ccccn3)[nH]c(=O)c2c1-c1ccccc1	i	36	61	-63	-67	-22	2.9	.	.	-2.0

A draw from above in order of SMILES length, high to low:
compound	FGF22 binding	Calb FLC	Beta apoptosis	Ecoli rRNA inh	Ecoli rRNA inh OD600	Ecoli rRNA inh RFP	AF4-AF9 inh	ALR inh	T cruzi repl	RanGTP-Imp inh
O=C(OCC(=O)N(Cc1ccccc1)Cc1ccccc1)c1cccc(O)c1	i	.	-1	-5	-2	2.2	2.1	-2	.	.
CC(C)c1ccc(C(CC(=O)c2ccc(Cl)cc2)C(=O)O)cc1 (centres undefined)	.	13	.	.	.	.	.	45	-5	3.6
Cc1sc2nc(-c3ccccn3)[nH]c(=O)c2c1-c1ccccc1	i	36	61	-63	-67	-22	2.9	.	.	-2.0

Other structures follow:
compound	FGF22 binding	Calb FLC	Beta apoptosis	Ecoli rRNA inh	Ecoli rRNA inh OD600	Ecoli rRNA inh RFP	AF4-AF9 inh	ALR inh	T cruzi repl	RanGTP-Imp inh
Cc1cc(NC(=O)c2cc(-c3ccc4c(c3)OCO4)on2)n(-c2ccccc2)n1	.	-6	-6	.	.	.	.	-4	-15	-4.4
Clc1ccc(C2Nc3cccc4cccc(c34)N2)cc1	i	-6	-4	-7	15	-4.8	6.0	-6	-6	0.2
COc1ccccc1CCNC(=O)Cn1ccc2cc(S(=O)(=O)N3CCCC3)ccc21	i	11	0	-12	-23	1.6	-2.4	-13	-9	2.0
CN(C)c1ccc(C#Cc2ccc3cc(CCCO)oc(=O)c3c2)cc1	i	.	-4	-23	-24	7.0	-14	-1	.	.
COc1ccc(OC)c(S(=O)(=O)NCC(=O)NC2CCCCCC2)c1	i	.	-3	-2	-3	-1.7	1.8	.	.	.
COc1ccc(CN2CCC(C(=O)N3CCCC(C)C3)CC2)cc1OC (centres undefined)	i	24	-4	7	10	-1.7	-2.3	2	9	2.5
CCCN(CCC)S(=O)(=O)c1ccc(C(=O)N2CCOCC2)cc1	.	-2	-6	.	.	.	.	2	-1	-1.7
CCN(CC(=O)Nc1ccc2c(c1)OCCO2)C(=O)c1ccc(Cl)cc1Cl	i	0	1	-6	-11	-1.4	3.9	1	-1	-0.8
CCc1ccc(/C(C)=N\Nc2ccc([N+](=O)[O-])cc2)cc1	.	129*	10	.	.	.	.	1	4	-8.0
Cc1nn(CC(=O)O)c(=O)c2ccccc12	.	-12	0	.	.	.	.	-6	-5	-1.4
O=C(NCc1ccc2c(c1)OCO2)c1ccccc1Cl	i	-32	-1	3	4	2.7	-1.4	-7	23	1.7
OCCNCCCOc1ccc(Cl)cc1Br	.	-23	-22	.	.	.	.	4	29	1.3
CC(C)CCNC(=O)NC(=O)COc1c(F)c(F)cc(F)c1F	.	-19	1	.	.	.	.	-1	14	1.8
O=C1CC(N2CCN(c3ccc(Cl)cc3)CC2)C(=O)N1c1ccc(F)cc1 (centres undefined)	i	8	.	3	1	-4.9	0.4	24	-6	-0.3
COc1ccc(OC)c(C2CC(=O)Nc3c2c(=O)[nH]c2ncnn32)c1 (centres undefined)	i	-12	0	12	6	-1.1	0.0	-7	5	3.8
COc1cccc(CNC(=O)C2CCN(S(=O)(=O)c3ccc(Br)s3)CC2)c1	i	0	5	4	-8	0.4	-14	-4	10	6.0
O=C1OC(c2ccc(O)cc2)(c2ccc(O)cc2)c2ccccc21	i	.	1	.	.	.	-1.2	14	-29	4.6
O=C1C2C(C(=O)N1c1ccccc1)N1CCCN1C2c1ccccc1 (centres undefined)	i	10	.	13	8	1.6	0.4	8	3	?
COc1ccc(C2C(C(C)=O)=C(O)C(=O)N2CCc2ccccc2)c(OC)c1 (centres undefined)	.	1	-3	.	.	.	.	-6	13	?
CC(CCc1ccccc1)NC(=O)CN1CCc2ccccc2C1 (centres undefined)	i	-9	-6	4	6	-0.3	-8.6	.	-4	1.0
COc1ccc(/C=C(\NC(=O)c2cccs2)C(=O)Nc2cccc3ccccc23)cc1OC	.	6	4	.	.	.	.	-3	4	6.9
CC(C(=O)NC(C)(C)C)N(C(=O)CS(=O)CC(=O)Nc1ccc(F)cc1)C1CCCC1 (centres undefined)	i	-2	-2	-1	3	-1.8	-0.3	-2	-1	2.0
Cc1cc(NS(=O)(=O)c2ccc(NC(=O)CCCOc3ccc(Cl)cc3)cc2)no1	.	3	-5	.	.	.	.	.	-2	-0.3
Fc1cccc2sc(Nc3nc4cc5c(cc4s3)OCO5)nc12	i	-2	17	16	17	2.9	-0.7	4	20	2.6
CCOC(=O)c1sc(=S)sc1SCc1cccc(C(F)(F)F)c1	.	1	7	16	9	-1.7	.	53	2	-2.8
CCOc1ccc(S(=O)(=O)NC2CCCC2)cc1C	i	0	2	2	6	-0.6	-1.7	2	-11	6.0
COc1ccc(NC(=O)CCCC(=O)OCC(=O)c2cccc(OC)c2)cc1	i	18	-6	-2	4	-2.9	-4.9	3	7	2.8
CSc1nc(SCC(=O)O)c2c3c(sc2n1)COC(C)(C)C3	i	-5	1	-30	-36	-11	0.4	3	7	1.0
O=C(O)CC/C(=C\c1ccc(N2CCOCC2)c([N+](=O)[O-])c1)c1nc2ccccc2s1	i	38	.	-31	-32	-3.7	-1.5	.	12	4.5
Cn1c(-c2ccc(F)cc2)cnc1NCc1ccc(F)cc1	.	-3	0	.	.	.	.	91*	-11	-2.4
CC(C)c1cc(C(=O)N2CCCC(C(=O)c3ccc4ccccc4c3)C2)on1 (centres undefined)	i	8	-5	-27	-29	-7.9	-5.9	-2	9	-1.1
CC(C)Oc1cccc(C(=O)Nc2ncn[nH]2)c1	i	-4	-16	6	4	-0.7	2.7	-7	-8	4.3
COc1ccccc1Cc1noc(C(C)(C)NC(=O)c2ccccc2)n1	.	0	3	.	.	.	.	-1	-5	-0.6
O=C(Nc1cccc(C(=O)Nc2ccc(F)cc2F)c1)c1ccccc1	i	7	0	8	7	0.4	0.3	-3	-1	0.0
COc1cc(CCC(=O)Nc2nnc(-c3cccnc3)s2)cc(OC)c1OC	i	-12	-2	-7	-5	1.3	-3.2	-17	2	-7.1
CCC(C)(C)NC(=O)C1CCN(c2nc(OC)nc(OC)n2)CC1	i	-6	2	8	10	6.5	-3.2	-2	-13	3.7
CC1(C)CC(=O)C2=C(C1)c1c(ccc3ncccc13)NC2c1cccs1 (centres undefined)	.	-4	5	.	.	.	.	-1	21	1.5
O=C(O)c1ccc(-n2c(O)c(C=C3N=c4ccccc4=N3)sc2=S)cc1	i	1	4	-6	-7	4.7	7.5	99*	-2	-3.3
COc1ccccc1N(C)S(=O)(=O)c1ccc(Cl)c(C(=O)NC2=NCCS2)c1	i	-2	-5	-30*	-21*	-2.6*	-0.4	-28	-3	-2.5
O=C(Cc1ccc(Cl)cc1)c1ccc(O)cc1	i	-4	-1	-37*	5.1*	-6.2*	2.4	-8	.	0.8
O=C(c1ccc(Cl)c(S(=O)(=O)N2CCOCC2)c1)N1CCN(Cc2ccccc2)CC1	.	1	-1	.	.	.	.	7	-3	0.4
COc1ccc(NC(=O)c2[nH]c(C)c(C(C)=O)c2C)cc1S(=O)(=O)N1CCOCC1	.	-3	0	.	.	.	.	-2	-17	2.1
CCOC(=O)C1=C(COC(=O)COc2ccccc2C=O)NC(=O)NC1C (centres undefined)	i	.	0	19	17	3.9	-4.9	1	.	.
Cc1nc2ccccc2cc1C(=O)N/N=C/c1cccs1	i	-25	-2	7	10	-0.3	1.9	47	-16	-0.3
CCN(CC)C(=O)COc1ccc2c3c(c(=O)oc2c1C)CCCC3	i	58	5	-8	-1	-6.7	-5.2	-18	6	-4.2
CCOC(=O)c1ccc(-c2c(-c3ccccc3OC)oc3ccccc23)cc1F	i	.	1	7	12	7.0	-0.5	-3	.	.
Cc1ccccc1NC(=O)CSc1nc2ccccc2o1	.	2	-1	.	.	.	.	35	-7	-5.5
CC(NC(=O)CSc1ccccc1C(=O)O)C1CC2CCC1C2 (centres undefined)	i	-3	1	24	17	7.6	-1.7	0	-10	3.6

Compound activity from PubChem.
